High-throughput results as filed in PubChem BioAssay.
TAR Tat displ = HIV-1 TAR-Tat binding disruption | HIV-1 TAR RNA, Tat peptide displacement FRET; stronger effect = higher value | z-score (test concentration not listed) | 100,000 tested, 0.6% active | AID 1259389;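 further: score is relative to mean and SD of negative controls; some compounds called inactive have numbers as strong as hits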
CDC25B-CDK2 inh = human CDC25B-CDK2/CyclinA binding inhibition; z-score (no concentration beside the values); 94,000 tested, 0.72% active; HTRF CDC25B-CDK2/CyclinA binding, anti-His/anti-Flag; stronger effect = higher value; P30305+P24941;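 further: score is relative to mean and SD of negative controls; strong numbers were not always called active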
* = called active by the depositor; . = not tested or not shown.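 How the source made its calls: active means z-score from 3 up in half or more of its runs; inactive means the rest.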

SMILES	TAR Tat displ	CDC25B-CDK2 inh
Cc1ccc(-c2cc(C(N)=O)c3cc(F)ccc3n2)cc1	.	0.73
COCCCNC(=O)CCCc1cn(C)c2ccccc12	2.71	.
CCCCc1c(C)[nH]n(-c2nc(C)c(C(=O)Nc3ccc(F)cc3)s2)c1=O	0.56	-2.14
COC(=O)c1sc2ccccc2c1S(=O)(=O)NC(C)c1ccccc1 (centres undefined)	-0.46	.
CC1(C)CC(=O)C2=C(C1)Nc1ccccc1N(CC(=O)NCc1ccco1)C2c1cccs1 (centres undefined)	0.64	.
CC(C)(C)c1ccc(NC(=O)CN2CCOCC2)c(NC(=O)c2cccs2)c1	.	-0.76
O=[N+]([O-])c1ccc(-c2noc(-c3ccno3)n2)o1	.	-1.73
Cn1cc(-c2cc3n(n2)CCCN3C(=O)CCC(=O)NCCCN2CCOCC2)c2ccccc21	3	.
O=C(Nc1ccc2nc(SCc3cc(=O)n4ccsc4n3)sc2c1)C1CCCCC1	-0.82	.
NS(=O)(=O)c1ccc(NNC(=O)c2ccccc2C(=O)O)cc1	.	-1.75
CCC1CN(C(=O)Nc2cccc(Cl)c2)c2ccccc2O1 (centres undefined)	2.65	.
Cc1ccc(N2C=NNC(=O)C2)cc1C	.	-0.31
CC(C)Cn1c(CN2CCN(C)CC2)nc2c1c(=O)n(C)c(=O)n2C	.	-0.69
CCN(CC)S(=O)(=O)N1CCC(C(=O)NCCC2=CCCCC2)CC1	.	-1.93
COc1ccc(NC(=O)c2noc3c2CCc2sccc2-3)cc1OC	0.09	.
CC(=O)N1CCc2cc3ccccc3nc21	0.92	-0.98
CCN(CC)S(=O)(=O)c1ccc2oc(C(=O)NC(C)C)c(C)c2c1	.	1.22
Cc1ccc(CN(C(=O)c2cc(-c3ccc(C)c(C)c3)on2)C2CCS(=O)(=O)C2)cc1 (centres undefined)	2.21	-2.46
O=C1OCc2cccc3cccc(c23)S(=O)c2cccc3cccc1c23 (centres undefined)	.	-1.7
O=C(CSc1nc2c(cnn2-c2ccccc2)c(=O)[nH]1)Nc1ccc(F)cc1F	1.73	.
Cc1ccc(C)c(N2CCN(S(=O)(=O)c3cc(-c4noc(C5CC5)n4)cs3)CC2)c1	1.57	.
Cc1ccc2oc(=O)c3cnn(CC(=O)NCCN(C)C)c3c2c1	0.08	-1.68
O=C(Cn1c(NCCCO)nc2ccccc21)c1cccc2ccccc12	0.61	-0.56
COc1cc(NC(=O)CSC2=Nc3ccccc3C3=NC(C(C)C)C(=O)N23)cc(OC)c1 (centres undefined)	0.37	.
CC(=O)C1CNc2ccc(Cl)cc2C1(O)c1ccccc1 (centres undefined)	.	-0.54
Cc1nc(NCCC(C)C)c2sc3nc4c(cc3c2n1)COC(C)(C)C4	0.37	.
Cn1c(C(=O)NCCN2CCc3ccccc3C2)cc2c(=O)n(C)c3ccccc3c21	0.94	-1.46
O=C(Cn1cnc([N+](=O)[O-])n1)N1CCc2ccccc2C1	0.88	.
N#CC(C#N)=C/C=C(/Sc1nc2cc(Cl)ccc2s1)c1ccc(Cl)cc1	.	-1.71
CN(c1ccccc1CNc1nc(Nc2ccc3c(c2)CC(=O)N3)ncc1C(F)(F)F)S(C)(=O)=O	.	0.49

Profiles, quoted from the list.
Shown for Cn1c(C(=O)NCCN2CCc3ccccc3C2)cc2c(=O)n(C)c3ccccc3c21 = TAR Tat displ: 0.94; CDC25B-CDK2 inh: -1.46
Shown for O=C1OCc2cccc3cccc(c23)S(=O)c2cccc3cccc1c23 (centres undefined) = TAR Tat displ: .; CDC25B-CDK2 inh: -1.7
Shown for N#CC(C#N)=C/C=C(/Sc1nc2cc(Cl)ccc2s1)c1ccc(Cl)cc1 = TAR Tat displ: .; CDC25B-CDK2 inh: -1.71

Following part:
SMILES	TAR Tat displ	CDC25B-CDK2 inh
CC(C)CCNC(=O)c1c[nH]c2ccc(S(=O)(=O)N3CCc4ccccc43)cc2c1=O	.	-2.91
Cn1nnnc1SCCCNCc1cccc(Br)c1	1.29	-1
Cc1cc2n(n1)C(c1cn(-c3ccccc3)nc1C)Nc1ccccc1-2 (centres undefined)	0.13	0.09
COC(=O)CSc1nc(N)nc(C)c1Br	-0.65	-0.9
COc1ccc(NC(=O)CC2SC(N)=NC2=O)cc1 (centres undefined)	.	-1.52
CCCN(CCC)S(=O)(=O)c1cc(-c2cc(C)no2)ccc1C	-0.59	.
Cn1c(=O)c2c(-c3cccc(Br)c3)n(-c3ccccc3O)cc2n(C)c1=O	2.17	-0.84
Cc1nc(-c2ccnc(=S)[nH]2)cs1	.	-0.84
CCCCN(CC)CCCNC(=O)c1cc2c(s1)-c1ccccc1OC2	1.56	1.03
Cc1nc2ccccc2c2oc(C(=O)NC3CCCc4ccccc43)cc12 (centres undefined)	1.93	-1.06
Cc1cc2n(n1)CCCN2C(=O)CCC(=O)N1CCN(C)CC1	1.94	.
CC(C)OC(=O)C(C(=O)C(F)(F)F)c1cc(NS(=O)(=O)c2ccc(Cl)cc2)c2ccccc2c1O (centres undefined)	.	2.83
Cc1c(-c2ccccc2)[n+](=O)c2c(n1[O-])CCCCC2	.	-4.97
CCOC(=O)NNC(=S)Nc1cccc(C)c1	.	-2.03
Cc1ccc(Nc2c(-c3ccc(C)c(C)c3)c(=O)c2=O)cc1C	2.62	.
COc1ccc(Cc2nn3c(-c4ccc(C)cc4)nnc3s2)cc1	2.43	0.62
CC(C)NC(=O)C1=CC(c2cccs2)=NS(=O)(=O)N1C	2.74	-2.03
S=c1[nH]c(=S)c2cnc(N3CCOCC3)nc2[nH]1	.	-1.28
CCn1nc(C)cc1-c1n[nH]c(=S)n1CCCOC	.	0.44
C=CCOc1ccc(C2CC(=O)Nc3n[nH]c(-c4ccc(Cl)cc4)c32)cc1 (centres undefined)	-1.59	0.42
O=C(COc1ccccc1F)Nc1nnc2n1CCCS2	0.08	.
Cc1nn(C(C)C(=O)NCc2ccccc2Br)c(=O)c2cc3occc3n12 (centres undefined)	-0.29	-0.11
COc1ccc(NC(C)=O)cc1C(C)=O	.	-1.05
c1c2c(cc3c1OCO3)OCN(CC13CC4CC(CC(C4)C1)C3)C2	.	-1.83
COc1ccc(Cc2nn3cnnc3s2)cc1OC	-0.31	-0.89
CCC(C(=O)NC1CCCCC1C)n1nc(C)n2c(cc3occc32)c1=O (centres undefined)	0.73	-0.66
O=C1COc2cc(-c3c(NCc4ccccc4Cl)c(=O)c3=O)ccc2N1	-2.03	.
CN(C)CCCN1C(=O)C(O)=C(C(=O)c2cccs2)C1c1ccccc1F (centres undefined)	-0.27	-0.92
Cc1csc(NC(=O)CSc2nc3ncccc3o2)n1	1.49	.
Cn1c(SCC(=O)Nc2ccccc2)nnc1-c1cncc(C#Cc2ccccc2)c1	.	-0.7
CC1CCN(c2ccc3nnc(CCC(=O)NCCN4CCCC4)n3n2)CC1	-0.69	.
CN1CCN(CCNC(=O)C2CCCN(c3nnc(N4CCCC4=O)s3)C2)CC1 (centres undefined)	1.16	.
CC1CC(C)CN(C(=O)C2CCCN(c3ncnc4c3nc3n4CCCCC3)C2)C1 (centres undefined)	1.97	-0.95
Cc1cc(C)c(I)c(C)c1	.	-2.07
Cc1nnc2sc(-c3cccc(F)c3)nn12	-0.02	-0.86
COc1ccc2c(c1)[nH]c1c(=O)n(CCN3CCCCC3C)cnc12 (centres undefined)	3.13	-0.75
O=C(NCc1ccc(F)cc1)c1cc2c(=O)n3ccccc3nc2s1	.	0.33
CCCSCCCn1cnc2c([nH]c3ccccc32)c1=O	0.53	-1.61
COc1ccc(-c2nnc3c4cnn(-c5ccccc5)c4ncn23)cc1OC	-0.16	-0.72
Cc1nn(CC(=O)N2CCOCC2)c(=O)c2cccn12	0.89	-1.41
O=C1c2cccnc2C(=O)N1Cc1ccc(S(=O)(=O)Nc2ccc(F)cc2)cc1	1.06	.
Cc1c(-c2nc(-c3ccccc3)no2)nnn1-c1ccc(Br)cc1	-0.26	.
O=C(Cn1ncn2nc(-c3cccs3)cc2c1=O)NCc1ccc2c(c1)OCO2	1.36	-1.79
CN1CCN(CC(=O)OCCN=C2NS(=O)(=O)c3ccccc32)CC1	.	1.08
Cc1ccccc1OCCSc1nc(-c2cccs2)nc2cc(=O)[nH]n12	1.03	.

A draw from above in order of heavy-atom count, descending:
SMILES	TAR Tat displ	CDC25B-CDK2 inh
Cc1nn(CC(=O)N2CCOCC2)c(=O)c2cccn12	0.89	-1.41
Cn1nnnc1SCCCNCc1cccc(Br)c1	1.29	-1
CC(=O)N1CCc2cc3ccccc3nc21	0.92	-0.98

Single entries from above:
CDC25B-CDK2 inh, O=C(Cn1ncn2nc(-c3cccs3)cc2c1=O)NCc1ccc2c(c1)OCO2 stands at -1.79
TAR Tat displ, O=C1c2cccnc2C(=O)N1Cc1ccc(S(=O)(=O)Nc2ccc(F)cc2)cc1 stands at 1.06

The listing continues.
SMILES	TAR Tat displ	CDC25B-CDK2 inh
COc1cc(OC)c(NC(=O)N2CCN(S(=O)(=O)c3ccc4c(ccn4C)c3)CC2)cc1Cl	-0.39	.
CSc1cccc(NC(=O)CN2C(=O)C3CCCC3=Nc3ccccc32)c1 (centres undefined)	0.15	-1.2
C=CCSc1nnc(NC(=O)c2nn(-c3ccc(F)cc3)ccc2=O)s1	0.45	0.12
O=C(CS(=O)(=O)c1ccc(F)cc1)Nc1nc(-c2nc3ccccc3s2)cs1	-0.12	.
Cc1cc(=O)[nH]c(SCc2nc3nc(C)cc(C)n3c2Br)n1	.	0.49
Cc1nccn1CCc1n[nH]c(=S)n1-c1ccccc1	.	0.88
CSc1sc(C2=NNC(O)(C(F)(F)F)C2)c2c1C(=O)CCC2(C)C (centres undefined)	.	0.06
CCN(C(=O)Cn1cc(C(=O)c2cccs2)c2ccccc21)c1ccccc1	1.69	-3.15
COc1ccc(S(=O)(=O)NCCc2csc3nc(-c4cccs4)nn23)cc1F	-0.89	.
CC(=O)Nc1nc(C)c(-c2csc(Nc3ccc(O)cc3)n2)s1	-0.26	-2.3
Cc1cc2[nH]c(=O)c(=O)[nH]c2cc1S(=O)(=O)NC1CCCCC1C (centres undefined)	1.72	.
COC(=O)c1c(SC)nc2ccccc2c1OCc1ccccc1	-1.01	.
O=C(CCCCCn1c(=S)[nH]c2cc3c(cc2c1=O)OCO3)N1CCN(c2ccccn2)CC1	.	-2.29
CCCCN(C)S(=O)(=O)c1cc2c(cc1C)NC(=O)CO2	2.02	.
CCOC(=O)c1c(S(=O)(=O)N(CCC(C)C)Cc2ccco2)c(C)n(C)c1C	1.44	.

Part of the list above in another layout:
Compound | TAR Tat displ | CDC25B-CDK2 inh
O=C(CCCCCn1c(=S)[nH]c2cc3c(cc2c1=O)OCO3)N1CCN(c2ccccn2)CC1 | . | -2.29
COc1cc(OC)c(NC(=O)N2CCN(S(=O)(=O)c3ccc4c(ccn4C)c3)CC2)cc1Cl | -0.39 | .
O=C(CS(=O)(=O)c1ccc(F)cc1)Nc1nc(-c2nc3ccccc3s2)cs1 | -0.12 | .
CCCCN(C)S(=O)(=O)c1cc2c(cc1C)NC(=O)CO2 | 2.02 | .

New compounds follow.
SMILES	TAR Tat displ	CDC25B-CDK2 inh
Cc1ccccc1-c1nc(-c2ccc3c(c2)ncn3C2CCCC2)no1	0.3	.
Cc1ccc(N(C)S(=O)(=O)c2cc(-c3cnc(C4CC4)o3)ccc2C)cc1	1.1	.
Cc1ccc(OC(C)c2nc(-c3ccc(Cl)cc3)no2)cc1 (centres undefined)	1.58	-0.27
O=C(NNC(=S)Nc1ccc(Cl)cc1)c1ncc(C(F)(F)F)cc1Cl	.	-0.66
Cc1ccccc1-c1n[nH]c(=S)o1	1.27	-1.65
CN1C(=O)C(CC(=O)Nc2nccs2)Sc2ccc(S(=O)(=O)N(C)C)cc21 (centres undefined)	0.24	.
CC(C)(C)C(=O)Nc1noc2ccccc12	2.53	0.08
CCOc1ccc(-c2cccc(NS(=O)(=O)c3c(C)noc3C)c2)nn1	0.57	.
Nc1ncnc2c1nc1n2CC(O)CS1 (centres undefined)	.	-0.87
CCC(C)OC(=O)C1=C(C)OC23OC(N)=C(C#N)C12C(=O)c1ccccc13 (centres undefined)	.	-1.1
Cc1cc(NC2=CC(=O)CC(C)(C)C2)c(-n2cc3c(c2-c2ccccc2)c(=O)n(C)c(=O)n3C)cc1C	-5.59	-2.65
CC(C)C1c2cccn2CCN1C(=O)Nc1ccccc1Cl (centres undefined)	-0.25	.
CCOC(=O)N1CCc2c(sc3c2C(=O)NC(c2cc(Br)ccc2O)N3)C1 (centres undefined)	2.5	-1.28
COc1cccc(-n2c(-c3cccnc3)n[nH]c2=S)c1	.	-0.67
Cc1cccc(Nc2nc(C)nc3sc4c(c23)CCC4)c1	.	-0.51
COc1ccc(O)c(C2=NN3C(C2)c2cc(Br)ccc2OC3c2ccncc2)c1 (centres undefined)	-1.67	-0.03
COc1ccc(NS(=O)(=O)c2ccc3c(c2)NC(=O)CCS3)cc1Cl	0.01	.
Cc1nnc2c(NCc3ccco3)nc3ccc(C(=O)c4ccccc4)cc3n12	-0.24	.
CCCCNC(=O)CCCn1c2ccccc2c2cn[nH]c(=O)c21	-0.62	-0.48
Cn1c(=O)[nH]c(=O)c2c1nc(N1CCOCC1)n2CC(N)=O	-0.86	-0.77
O=S(=O)(NCCc1ccccn1)c1ccc2c(c1)OCCCO2	.	-1.99
Cc1cccn2c(=O)c(C(=O)NCCCn3ccnc3)c(O)nc12	0.47	-2.84
Cc1ccc(NCC(O)Cn2c(C)c(C)c3ccccc32)cc1 (centres undefined)	.	-0.54
CN(C(=O)COc1ccccc1)C(c1cccs1)c1c[nH]c2ccccc12 (centres undefined)	-0.04	1.17
Cc1ccc(-c2nc(CN3CCN(S(=O)(=O)N(C)C)CC3)c(C)o2)cc1	0.38	.
Cc1ccc2oc(CN3CCN(S(=O)(=O)c4ccc5c(c4)oc(=O)n5C)CC3)nc2c1	2.82	.
